MT1-MMP reporter: MT1-MMP gene expression reporter suppression – cell-based, luciferase reporter, luminescence (AID 618); MT1-MMP promoter luciferase reporter cells, luminescence; calls from a first round at 10 µM; hits with a dose series show EC50 in µM; actives 0.62% (n = 87,000);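 active = over half of the reporter light lost at 10 µM or EC50 under 50 µM; inactive = the rest and hits that failed the dose series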;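 note: actives suppress MT1-MMP promoter-driven transcription so potencies describe inhibitors; HT1080 fibrosarcoma cells; overnight exposure; toxic or luciferase-blocking compounds were not removed from the actives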
Hsc70: Hsc70 inhibitors, probe displacement, primary screen, biochemical, fluorescence polarization (AID 568) | Hsc70 fluorescence polarization, probe displacement; higher % means a stronger effect; strong numbers were not always called active | one-dose displacement, % at 20 µM; IC50 in µM for titrated hits | 83,000 tested, under 10 active;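 active = displacement above 50% without optical interference and an IC50 on retest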;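 note: ATPase domain with a fluorescein-tagged ATP probe; 0% = vehicle and 100% = excess ADP; read after one hour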
WNV NS2B-NS3 inh: blocks West Nile virus NS2B-NS3 protease activity. P06935. WNV NS2B-NS3 protease, fluorogenic substrate Ex360/Em465; stronger effect = lower value. z-score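 (tested at a level between 10 and 100 µM)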. actives 0.18% (n = 65,000);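 active = z-score at -3 or under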;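 note: score is relative to mean and spread of the compound wells of a plate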
Target sequence (P06935 1371-1501 limits assumed): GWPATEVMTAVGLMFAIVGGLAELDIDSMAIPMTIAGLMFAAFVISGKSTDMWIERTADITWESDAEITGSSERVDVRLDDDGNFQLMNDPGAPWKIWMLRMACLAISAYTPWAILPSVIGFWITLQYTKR
Target sequence (P06935 1502-1679 limits assumed): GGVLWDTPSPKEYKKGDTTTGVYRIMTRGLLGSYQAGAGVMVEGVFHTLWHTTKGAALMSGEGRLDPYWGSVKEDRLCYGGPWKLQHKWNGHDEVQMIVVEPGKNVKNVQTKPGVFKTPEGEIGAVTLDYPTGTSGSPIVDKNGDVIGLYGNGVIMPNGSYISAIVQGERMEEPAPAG
Active calls of the source: *. Only part of the results is shown; count on the stated rates, not on these rows.

For COc1cc(S(=O)(=O)N2CCC(O)(c3cccc(C(F)(F)F)c3)CC2)ccc1-n1cnnn1 the results were MT1-MMP reporter inactive, Hsc70 1.3% and WNV NS2B-NS3 inh -0.49.
COc1cccc(-c2nn(-c3ccccc3)cc2C(=O)n2nnc3ccccc32)c1 was read as MT1-MMP reporter inactive and Hsc70 -4.2%.
For COc1ccc(C(C)=O)cc1CSc1nnc(C)s1 the results were MT1-MMP reporter inactive, Hsc70 6.1% and WNV NS2B-NS3 inh 2.
`COc1ccc(N(CC(=O)Nc2ccc(C)cn2)S(=O)(=O)c2c(C)noc2C)cc1` gave MT1-MMP reporter inactive, Hsc70 0.5% and WNV NS2B-NS3 inh 1.8.
O=S(=O)(c1ccccc1)N(Cc1ccccc1)c1ccccn1 was read as MT1-MMP reporter inactive and Hsc70 6.8%.
For CCS(=O)(=O)C(=C1Nc2ccccc2N1)S(=O)(=O)CC the results were MT1-MMP reporter inactive and Hsc70 -0.3%.
COCCN(CC(=O)Nc1ccc(F)cc1)S(=O)(=O)c1ccc(S(=O)(=O)N2CCCC2)cc1 was read as MT1-MMP reporter inactive, Hsc70 -3.8% and WNV NS2B-NS3 inh 0.44.
`Cc1cc(C)c2c(N)c(C(=O)Nc3ncc(C)s3)sc2n1` gave MT1-MMP reporter 0.21µM* and Hsc70 1.7%.
Screening CC(C)OC(=O)c1cccc(C(=O)OCc2ccco2)n1 returned MT1-MMP reporter inactive, Hsc70 -2.8% and WNV NS2B-NS3 inh -1.
Screening CSc1ncc(Cl)c(C(=O)Nc2ccc(S(=O)(=O)N3CCOCC3)cc2)n1 returned MT1-MMP reporter inactive, Hsc70 -8.9% and WNV NS2B-NS3 inh 0.12.
COc1ccc2[nH]c3c(=O)n(CCCCC(=O)N4CCC(C(N)=O)CC4)c(=S)[nH]c3c2c1 was read as MT1-MMP reporter inactive, Hsc70 -9.1% and WNV NS2B-NS3 inh 0.0082.
Cn1cnnc1SCC(=O)N1N=C2/C(=C/c3ccco3)CCCC2C1c1ccco1 (stereo unspecified) was read as MT1-MMP reporter inactive and Hsc70 -1.1%.
O=c1c(C/C=C/c2ccccc2)c(O)nc2n1CCCS2 was read as MT1-MMP reporter inactive, Hsc70 2.2% and WNV NS2B-NS3 inh -0.09.
For CCOC(=O)COc1cccc2c(=O)n(CC(=O)N3CCN(C(=O)OCC)CC3)ccc12 the results were MT1-MMP reporter inactive, Hsc70 3.0% and WNV NS2B-NS3 inh 0.16.
For CCOc1ccccc1C(=O)NC(C(=O)Nc1ccccc1N1CCOCC1)C(C)C (stereo unspecified) the results were MT1-MMP reporter inactive, Hsc70 5.7% and WNV NS2B-NS3 inh -1.1.
CCOC(=O)C(C(=O)OCC)C1N=C(N)N=C2Oc3ccccc3N21 (stereo unspecified) was read as MT1-MMP reporter inactive, Hsc70 2.4% and WNV NS2B-NS3 inh -0.73.
`Cc1ccccc1-n1nc(C)c2cc(C(=O)N3CCOCC3)sc21` gave MT1-MMP reporter inactive, Hsc70 3.7% and WNV NS2B-NS3 inh -1.4.
CSc1nnc(-c2sc3cc(C(F)(F)F)cnc3c2-c2ccccc2)n1C was read as MT1-MMP reporter inactive and Hsc70 3.5%.
O=C1CCCC2=C1C1(CCCCC1)N=C(Nc1nc3ccccc3s1)N2 was read as MT1-MMP reporter inactive, Hsc70 2.8% and WNV NS2B-NS3 inh 0.1.
For CCCCN(CC)CCCNC(=O)c1cc2c(=O)n(C)c3ccccc3c2n1C the results were MT1-MMP reporter inactive, Hsc70 3.5% and WNV NS2B-NS3 inh -0.23.
`C/C(=N/NC(=O)Cc1cccn1C)c1ccccc1` gave MT1-MMP reporter inactive and Hsc70 2.6%.
For Cc1ccc(S(=O)(=O)N2CCN(C(=O)CCC(=O)OCC(=O)Nc3cccc(C#N)c3)CC2)cc1 the results were MT1-MMP reporter inactive, Hsc70 1.5% and WNV NS2B-NS3 inh -0.38.
Screening CC1Cc2ccccc2N1C(=O)CN1CCc2ccccc2C1 (stereo unspecified) returned MT1-MMP reporter inactive, Hsc70 -5.4% and WNV NS2B-NS3 inh 2.3.
`Clc1cccc(-c2cc3nc4c(c(N5CCNCC5)n3n2)CCCC4)c1` gave MT1-MMP reporter inactive and Hsc70 -6.3%.
`COc1cc(C2c3sc(=O)[nH]c3SC3C4CCC(C4)C23)ccc1O` (stereo unspecified) gave MT1-MMP reporter inactive, Hsc70 2.3% and WNV NS2B-NS3 inh -0.63.
Screening O=C(NCC(=O)N(Cc1ccco1)C(C(=O)NC1CCCCC1)c1cccnc1)c1ccco1 (stereo unspecified) returned MT1-MMP reporter inactive, Hsc70 -2.7% and WNV NS2B-NS3 inh 0.11.
Cc1nnc2ccc(N3CCC(C(N)=O)(N4CCCCC4)CC3)nn12 was read as MT1-MMP reporter inactive, Hsc70 2.9% and WNV NS2B-NS3 inh -0.55.
COc1ccc(OCC(O)CN2CCCCC2)cc1 (stereo unspecified) was read as MT1-MMP reporter inactive, Hsc70 4.8% and WNV NS2B-NS3 inh 1.1.
Screening CCOCCOC(=O)c1[nH]c2c(c1C)C(=O)CC(c1ccc(N(C)C)cc1)C2 (stereo unspecified) returned MT1-MMP reporter inactive, Hsc70 -2.9% and WNV NS2B-NS3 inh 0.81.
O=C(Nc1cccc(F)c1)c1ccccc1 was read as MT1-MMP reporter inactive and Hsc70 1.7%.
`Cc1cc(SCC(=O)c2ccccc2)nc(SCC(=O)c2ccccc2)n1` gave MT1-MMP reporter inactive and Hsc70 -3.3%.
`COC(=O)[C@H](C)NC(=O)NC1CCCc2ccccc21` (stereo partly specified) gave MT1-MMP reporter inactive, Hsc70 3.3% and WNV NS2B-NS3 inh 0.1.
Screening CC1CN(C(=O)c2ccccc2C(=O)c2ncc[nH]2)CC(C)O1 (stereo unspecified) returned MT1-MMP reporter inactive, Hsc70 1.5% and WNV NS2B-NS3 inh -0.54.
For Nc1nc2n(n1)C(c1ccco1)CC(c1ccc(Cl)cc1)N2 (stereo unspecified) the results were MT1-MMP reporter inactive, Hsc70 -3.1% and WNV NS2B-NS3 inh -0.49.
Screening CN(c1ccccc1C(=O)Nc1ccc2c(c1)OCO2)S(C)(=O)=O returned MT1-MMP reporter inactive, Hsc70 0.6% and WNV NS2B-NS3 inh -1.4.
Screening O=C(NC1CCCCC1)N1CCN(C2CCCCC2)CC1 returned MT1-MMP reporter inactive, Hsc70 7.8% and WNV NS2B-NS3 inh -0.68.
Screening Nc1nnc(SCC(=O)Nc2ccc(F)c(Cl)c2)n1-c1ccccc1 returned MT1-MMP reporter inactive, Hsc70 1.1% and WNV NS2B-NS3 inh 0.25.
For O=C1c2ccccc2C(=O)N1OCc1ccccc1 the results were MT1-MMP reporter inactive, Hsc70 -3.2% and WNV NS2B-NS3 inh 1.4.
Screening CCOC(=O)N1CCN(C(=O)Cn2nc(C)c3sc4ccccc4c3c2=O)CC1 returned MT1-MMP reporter inactive, Hsc70 -1.9% and WNV NS2B-NS3 inh -0.59.
For c1cncc(-c2nc(N3CCCCCC3)c3ccccc3n2)c1 the results were MT1-MMP reporter inactive, Hsc70 -1.7% and WNV NS2B-NS3 inh -0.14.
Screening COc1ccccc1/C=N/NC(=O)C1=NNC(c2ccccc2)(c2ccccc2)C1 returned MT1-MMP reporter inactive and Hsc70 -2.2%.
Screening CCCOc1ccc(N2C(=O)CC(N3CCN(C(=O)c4ccco4)CC3)C2=O)cc1 (stereo unspecified) returned MT1-MMP reporter inactive, Hsc70 -3.0% and WNV NS2B-NS3 inh -0.34.
Cc1ccc(Cn2c(CN3CCOCC3)nc3c2c(=O)n(C)c(=O)n3C)cc1 was read as MT1-MMP reporter inactive, Hsc70 2.6% and WNV NS2B-NS3 inh -0.95.
`O=C(O)Cn1c(-c2cscn2)nc2ccccc21` gave MT1-MMP reporter inactive, Hsc70 -0.4% and WNV NS2B-NS3 inh -0.73.
For COc1cc(C)c(S(=O)(=O)N2CCOCC2)cc1C(C)C the results were MT1-MMP reporter inactive, Hsc70 -3.0% and WNV NS2B-NS3 inh 0.2.
For O=C(O)CSc1ncnc2c1oc1ccccc12 the results were MT1-MMP reporter inactive and Hsc70 1.7%.
For CC(NC(=O)c1nn(C)c(=O)c2ccccc12)c1ccccc1 (stereo unspecified) the results were MT1-MMP reporter inactive, Hsc70 -1.0% and WNV NS2B-NS3 inh 0.81.
For CCOc1ccc2nc(NC(=O)c3ccc(OC)c(S(=O)(=O)N4CCOCC4)c3)sc2c1 the results were MT1-MMP reporter inactive and Hsc70 -1.2%.

By substructure, the entries above containing a furan ring, fused or not (6)
Screening CC(C)OC(=O)c1cccc(C(=O)OCc2ccco2)n1 returned MT1-MMP reporter inactive, Hsc70 -2.8% and WNV NS2B-NS3 inh -1.
Cn1cnnc1SCC(=O)N1N=C2/C(=C/c3ccco3)CCCC2C1c1ccco1 (stereo unspecified) was read as MT1-MMP reporter inactive and Hsc70 -1.1%.
Screening O=C(NCC(=O)N(Cc1ccco1)C(C(=O)NC1CCCCC1)c1cccnc1)c1ccco1 (stereo unspecified) returned MT1-MMP reporter inactive, Hsc70 -2.7% and WNV NS2B-NS3 inh 0.11.
For Nc1nc2n(n1)C(c1ccco1)CC(c1ccc(Cl)cc1)N2 (stereo unspecified) the results were MT1-MMP reporter inactive, Hsc70 -3.1% and WNV NS2B-NS3 inh -0.49.
Screening CCCOc1ccc(N2C(=O)CC(N3CCN(C(=O)c4ccco4)CC3)C2=O)cc1 (stereo unspecified) returned MT1-MMP reporter inactive, Hsc70 -3.0% and WNV NS2B-NS3 inh -0.34.
For O=C(O)CSc1ncnc2c1oc1ccccc12 the results were MT1-MMP reporter inactive and Hsc70 1.7%.

Next section
`CS(=O)(=O)N(CC(=O)N1CCN(c2ccc(F)cc2)CC1)c1cccc(Cl)c1` gave MT1-MMP reporter inactive and Hsc70 1.1%.
For CC(=O)c1c(C)[nH]c(C(=O)OC2CCCCC2=O)c1C (stereo unspecified) the results were MT1-MMP reporter inactive, Hsc70 0.2% and WNV NS2B-NS3 inh -0.64.
COc1ccc(-c2nnc(SC(C)C(=O)Nc3cccc(Cl)c3)o2)cc1 (stereo unspecified) was read as MT1-MMP reporter inactive, Hsc70 -5.5% and WNV NS2B-NS3 inh 1.
`COCCCNS(=O)(=O)c1ccccc1` gave MT1-MMP reporter inactive, Hsc70 3.2% and WNV NS2B-NS3 inh -1.3.
For CC1(C)CC(=O)C2=C(C1)NC(Nc1nc3ccccc3o1)=NC21CCCCC1 the results were MT1-MMP reporter inactive, Hsc70 0.5% and WNV NS2B-NS3 inh 0.48.
Screening O=C1CCC/C1=c1\s/c(=C\c2cccnc2)c(=O)n1-c1ccccc1 returned MT1-MMP reporter inactive, Hsc70 8.9% and WNV NS2B-NS3 inh -0.76.
Nc1cc(=O)[nH]c(SCc2nnc(-c3ccccc3)o2)n1 was read as MT1-MMP reporter inactive, Hsc70 3.4% and WNV NS2B-NS3 inh 1.2.
`Cc1ccc(S(=O)(=O)/C(C#N)=C/c2c(N3CCN(C)CC3)nc3c(C)cccn3c2=O)cc1` gave MT1-MMP reporter inactive, Hsc70 23% and WNV NS2B-NS3 inh 0.48.
CN(Cc1cccc(F)c1)C(=O)c1ccc(S(=O)(=O)C(F)F)cc1 was read as MT1-MMP reporter inactive, Hsc70 -1.4% and WNV NS2B-NS3 inh 0.37.
Screening CCCCCCn1c(=O)c(-c2nc3ccccc3c(=O)[nH]2)c(O)c2ccccc21 returned MT1-MMP reporter inactive, Hsc70 -4.8% and WNV NS2B-NS3 inh 0.25.
Screening CCOC(=O)CSc1nc2ccsc2c(=O)n1C1CCN(C(=O)OCC)CC1 returned MT1-MMP reporter inactive, Hsc70 6.0% and WNV NS2B-NS3 inh -0.43.
Cc1ccc(C(C(=O)NCc2ccco2)N(C(=O)Cn2nnc3ccccc32)c2ccccc2)o1 (stereo unspecified) was read as MT1-MMP reporter inactive, Hsc70 -5.0% and WNV NS2B-NS3 inh -0.4.
`COc1cc2ccccc2cc1C(=O)Nc1ccccc1N1CCN(S(C)(=O)=O)CC1` gave MT1-MMP reporter inactive, Hsc70 -5.4% and WNV NS2B-NS3 inh 2.5.
CC1CCCN(C(C(=O)Nc2ccc3c(c2)OCO3)c2ccccc2)C1 (stereo unspecified) was read as MT1-MMP reporter inactive, Hsc70 -1.2% and WNV NS2B-NS3 inh -1.6.
`O=C(CN(CC1CCCO1)C(=O)CCC(=O)Nc1ccccn1)NCC1CCCO1` (stereo unspecified) gave MT1-MMP reporter inactive, Hsc70 2.4% and WNV NS2B-NS3 inh -0.04.
`O=C(Nc1ccccc1)OCCOc1ccccc1` gave MT1-MMP reporter inactive, Hsc70 0.5% and WNV NS2B-NS3 inh -0.28.
Screening CCCCCn1c(=N)n(CC(O)COc2ccccc2OC)c2ccccc21 (stereo unspecified) returned MT1-MMP reporter inactive, Hsc70 -3.9% and WNV NS2B-NS3 inh 0.17.
CC(=O)OCC(OC(C)=O)C(OC(C)=O)C(OC(C)=O)C(=O)Nc1ccc(C)cc1C (stereo unspecified) was read as MT1-MMP reporter inactive, Hsc70 -0.2% and WNV NS2B-NS3 inh 1.9.
O=C(NCc1nc2ccccc2[nH]1)c1cccs1 was read as MT1-MMP reporter inactive, Hsc70 3.2% and WNV NS2B-NS3 inh -0.73.
For Cc1nnc2n1NC(c1ccc(Cl)cc1)C(C(=O)N1CCC(C)CC1)S2 (stereo unspecified) the results were MT1-MMP reporter inactive, Hsc70 -5.8% and WNV NS2B-NS3 inh -1.3.
